Assay outcomes: PubChem BioAssay, several laboratories
RecA splice inh: Mtb RecA intein splicing inhibitors, primary screen, biochemical, fluorescence, HTS. Protein RecA (Mycobacterium tuberculosis (strain ATCC 25618 / H37Rv)), P9WHJ3. cell-free RecA intein splicing. inhibition, %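 (about 9 µM by stock and volumes)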. 290,000 compounds, 0.75% hits; in the data active = inhibition above about 30%; inconclusive = no clear call, values can overlap the other calls;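 note: 0% = vehicle wells and 100% = reference inhibitor control wells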
Target sequence (P9WHJ3 whole entry, looked up, canonical isoform): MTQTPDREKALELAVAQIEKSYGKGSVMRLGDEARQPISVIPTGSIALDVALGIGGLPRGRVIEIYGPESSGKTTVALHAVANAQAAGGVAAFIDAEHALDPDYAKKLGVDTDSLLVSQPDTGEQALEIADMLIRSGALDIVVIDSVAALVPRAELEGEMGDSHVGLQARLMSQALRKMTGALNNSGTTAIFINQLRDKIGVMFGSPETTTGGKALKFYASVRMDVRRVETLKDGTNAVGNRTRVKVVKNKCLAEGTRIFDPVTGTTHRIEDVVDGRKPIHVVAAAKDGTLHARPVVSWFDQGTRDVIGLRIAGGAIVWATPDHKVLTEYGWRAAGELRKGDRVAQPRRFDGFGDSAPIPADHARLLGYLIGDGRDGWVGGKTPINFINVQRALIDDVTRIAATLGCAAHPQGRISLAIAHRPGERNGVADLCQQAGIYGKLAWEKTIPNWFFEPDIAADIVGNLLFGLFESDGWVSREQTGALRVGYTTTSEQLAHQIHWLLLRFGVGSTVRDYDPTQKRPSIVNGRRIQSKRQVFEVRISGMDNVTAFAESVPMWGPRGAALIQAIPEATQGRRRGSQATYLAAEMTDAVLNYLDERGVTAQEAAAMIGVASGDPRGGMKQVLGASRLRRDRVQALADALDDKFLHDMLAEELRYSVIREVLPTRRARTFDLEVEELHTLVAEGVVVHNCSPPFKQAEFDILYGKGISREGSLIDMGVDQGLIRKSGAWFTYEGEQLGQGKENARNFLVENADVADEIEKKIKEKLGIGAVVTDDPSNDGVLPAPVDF
YopH inh: YopH tyrosine phosphatase inhibitors, primary screen, biochemical, fluorescence Ex485/Em525; 140,000 compounds, 0.16% hits; AID 898, 2007; YopH tyrosine phosphatase [Yersinia enterocolitica]; inhibition, %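 (about 10 µM by stock and volumes)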;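 active = inhibition of 50% or more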;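 note: controls were vehicle for no effect and minimum signal wells for full effect; inactives centre near -20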
Mtb growth: M. tuberculosis H37Rv growth inhibitors, H37Rv strain (AID 1626); inhibition, % at 10 µM; hits with a dose series show IC50 in µM; M. tuberculosis H37Rv growth inhibition; higher % means a stronger effect; 220,000 compounds, 0.95% hits;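 active = confirmed in a dose series; inconclusive = inhibition above 80% but not taken into the dose series; inactive = below 80% or under 30% at every dose of the series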;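 note: bacteria incubated seven days before Alamar blue readout; 0% = bacteria only wells and 100% = bacteria with antibiotic wells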
Arbovirus anti: antivirals against arbovirus infection, primary screen, cell-based, full library, 10K replicate subset; inhibition, % at 10 µM; arbovirus infection cell-based antiviral screen; 200,000 compounds, 0.37% hits;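 active = inhibition from about 30%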;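 note: bluetongue infection of BSR cells; cell survival read as ATP light after 72 h; 0% = infected wells without compound and 100% = uninfected wells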
Mtb betalactam: beta-lactam sensitization of Mtb H37Rv, H37Rv. M. tuberculosis H37Rv growth with meropenem, percent inhibition; hits of this screen are not shown here. inhibition, % at 25 µM. 330,000 compounds, 0.27% hits. AID 434955, 2010;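 active = about 74% or more and at least 40 points above the plate without the antibiotic, then above 30% in a dose series; inconclusive = first-round hits that could not be retested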;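 note: growth measured after seven days incubation then overnight dye step; 0% = bacteria only wells and 100% = bacteria with antibiotic; twin plates without the antibiotic show which effects depend on it; some results filed as inactive read as strong as hits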
An asterisk follows results filed as active; ? = inconclusive; . = no result given. Only part of the results is shown; rates above refer to the full screens.

Assay codes – A = RecA splice inh; B = YopH inh; C = Mtb growth; D = Arbovirus anti; E = Mtb betalactam
#1 Cc1ccc(CNC(=O)COC(=O)CCC(=O)c2cccs2)cc1
  A: 0.2	B: .	C: 2%	D: -2	E: 7

#2 Cc1nnc(SCc2cnc(-c3ccccc3)o2)[nH]c1=O
  A: 1.5	B: -8	C: -11%	D: 6	E: -6

#3 C=CCNC(=O)c1ccncc1
  A: 1.1	B: -35	C: -9%	D: 4	E: -5

#4 O=C(CCS(=O)(=O)c1ccc2c(c1)NC(=O)CO2)NCCc1ccc(Cl)cc1
  A: 0.6	B: .	C: .	D: .	E: 1

#5 CCOC1=C/C(=C/c2c(N)n3nc(S(=O)(=O)CC)sc3nc2=O)C=CC1=O
  A: 5.2	B: .	C: 4%	D: 10	E: 16

#6 CSCCC(NC(=O)c1ccc([N+](=O)[O-])cc1Cl)C(=O)OCC(=O)NC(=O)CN1CCCC1=O (configuration not stated)
  A: -5.4	B: .	C: .	D: .	E: -9

#7 CCCC(=O)N(C)C1=Nc2ccc(Cl)cc2C(c2ccccc2)=[N+]([O-])C1
  A: 7.0	B: .	C: -2%	D: .	E: -11

#8 CCc1ccc(C(=O)C(C)OC(=O)Cn2cnc3c2c(=O)n(C)c(=O)n3C)cc1 (configuration not stated)
  A: -0.9	B: .	C: .	D: .	E: -10

#9 CC1CCN(S(=O)(=O)c2ccc(NC(=O)N3c4ccccc4Sc4ccccc43)cc2)CC1
  A: -1.5	B: -36	C: 11%	D: 7	E: -2

#10 CN(C)CCCCOc1ccc(Br)cc1Cl
  A: 0.4	B: .	C: 6%	D: -17	E: -2

#11 COC(=O)Cn1cnc2c(nnn2-c2ccc(F)cc2)c1=O
  A: 0.1	B: .	C: .	D: .	E: 3

#12 Cc1cc(C)nc(N/N=C/c2ccccc2OCc2ccc(Cl)cc2)n1
  A: -2.9	B: -19	C: 6%	D: -12	E: 4

#13 Cc1ccc(-c2nc3ccccc3c(=O)n2NC(=O)c2cccs2)cc1
  A: 4.9	B: -10	C: 10%	D: 4	E: -2

#14 Cc1oc(C(C)(C)C)c(CN2CCOCC2)c1C(=O)O
  A: -2.0	B: .	C: -7%	D: -4	E: -4

#15 S=C1CCC(c2ccc(Cl)cc2)=NN1c1ccccc1
  A: 12	B: .	C: 3%	D: .	E: 98

#16 COc1ccccc1-n1c(SCC(=O)Nc2ccc(F)cc2)nc2c(c1=O)SCC2
  A: 2.5	B: 2	C: 11%	D: 9	E: 15

#17 CC(=O)Nc1ccc(Nc2nc3ccccc3nc2NS(=O)(=O)c2ccccc2)cc1
  A: -6.2	B: .	C: -8%	D: .	E: 10

#18 CC1CC(C)CN(C(=O)CN(C)S(=O)(=O)c2ccc3c(c2)c(=O)n(C)c(=O)n3C)C1 (configuration not stated)
  A: 0.4	B: .	C: .	D: .	E: 0

#19 CCCNC(=O)N1C2CCC1CC(O)(c1cccnc1)C2 (configuration not stated)
  A: -1.3	B: -45	C: -1%	D: 4	E: -3

#20 COC(=O)Nc1ccc(S(=O)(=O)NCc2ccccn2)cc1
  A: 2.5	B: .	C: 5%	D: 18	E: -4

Record cards, as listed above:
CCCNC(=O)N1C2CCC1CC(O)(c1cccnc1)C2 (configuration not stated) in the list: RecA splice inh = -1.3; YopH inh = -45; Mtb growth = -1%; Arbovirus anti = 4; Mtb betalactam = -3
COc1ccccc1-n1c(SCC(=O)Nc2ccc(F)cc2)nc2c(c1=O)SCC2 in the list: RecA splice inh = 2.5; YopH inh = 2; Mtb growth = 11%; Arbovirus anti = 9; Mtb betalactam = 15

The list continues.
Assay codes – A = RecA splice inh; B = YopH inh; C = Mtb growth; D = Arbovirus anti; E = Mtb betalactam
#21 CCOC(=O)C1(CC2CCCCO2)CCN(Cc2nc3ccccc3nc2C)CC1 (configuration not stated)
  A: -3.9	B: .	C: -6%	D: 13	E: -10

#22 CCCCN1C2CCCC1CC(NC(=O)c1ccccc1Cl)C2 (configuration not stated)
  A: 1.3	B: .	C: .	D: .	E: 0

#23 C[C@H](NC(=O)c1nc[nH]c1C(=O)NC(c1ccccc1)c1ccccc1)C(=O)OCc1ccccc1
  A: 0.9	B: .	C: -4%	D: .	E: -1

#24 CCCOc1ccc(CCC(=O)N/N=C/c2ccco2)cc1
  A: -0.4	B: .	C: 8%	D: .	E: -1

#25 COc1ccccc1N1C(=O)CC1(C#N)c1ccc(OCc2ccccc2)cc1 (configuration not stated)
  A: 4.6	B: -27	C: 10%	D: 4	E: 56

#26 COc1ccc(N(CC(=O)N2CCN(c3cccc(C)c3)C(C)C2)S(=O)(=O)c2c(C)n[nH]c2C)cc1 (configuration not stated)
  A: .	B: .	C: 4%	D: 10	E: 0

#27 CCCCNC(=O)c1ccc(N2CCOCC2)c(NS(=O)(=O)c2ccc(OC)cc2)c1
  A: 1.8	B: -49	C: -3%	D: -4	E: 4

#28 O=C(CCSCc1ccccc1F)NCc1cccnc1
  A: -0.1	B: .	C: 2%	D: 1	E: 4

#29 O=C(CCC(=O)n1ncc2ccccc21)NCc1ccc(F)cc1
  A: 2.7	B: .	C: .	D: .	E: -3

#30 Cc1ccc(-n2ncc3c2CC(C)(C)CC3NC(=O)CCc2cnn(C)c2)cc1 (configuration not stated)
  A: -0.6	B: .	C: .	D: .	E: -12

Reprinted at random: 6 records from the list
Assay codes – A = RecA splice inh; B = YopH inh; C = Mtb growth; D = Arbovirus anti; E = Mtb betalactam
#28 O=C(CCSCc1ccccc1F)NCc1cccnc1
  A: -0.1	B: .	C: 2%	D: 1	E: 4

#25 COc1ccccc1N1C(=O)CC1(C#N)c1ccc(OCc2ccccc2)cc1 (configuration not stated)
  A: 4.6	B: -27	C: 10%	D: 4	E: 56

#22 CCCCN1C2CCCC1CC(NC(=O)c1ccccc1Cl)C2 (configuration not stated)
  A: 1.3	B: .	C: .	D: .	E: 0

#29 O=C(CCC(=O)n1ncc2ccccc21)NCc1ccc(F)cc1
  A: 2.7	B: .	C: .	D: .	E: -3

#21 CCOC(=O)C1(CC2CCCCO2)CCN(Cc2nc3ccccc3nc2C)CC1 (configuration not stated)
  A: -3.9	B: .	C: -6%	D: 13	E: -10

#27 CCCCNC(=O)c1ccc(N2CCOCC2)c(NS(=O)(=O)c2ccc(OC)cc2)c1
  A: 1.8	B: -49	C: -3%	D: -4	E: 4

Remaining list, next part
Assay codes – A = RecA splice inh; B = YopH inh; C = Mtb growth; D = Arbovirus anti; E = Mtb betalactam
#31 COc1ccc(NS(=O)(=O)c2cc(N)ccc2N2CCOCC2)cc1
  A: -2.1	B: .	C: .	D: .	E: 2

#32 COc1ccc(S(=O)(=O)N[C@@H](Cc2ccccc2)C(=O)N2CC[C@@]3(O)CCCC[C@H]3C2)cc1
  A: 1.7	B: -17	C: -2%	D: -3	E: 4

#33 Cc1nc(=O)c(-c2ccccc2)c(C)n1-c1ccccc1C(=O)O
  A: 1.3	B: 15	C: -1%	D: -1	E: 13

#34 S=c1nc(NCc2ccc3c(c2)OCO3)c2ccccc2[nH]1
  A: -4.4	B: .	C: .	D: .	E: 0

#35 CCOc1ccc(CN2CCN(Cc3[nH]c4ccccc4c3C)CC2CCO)cc1 (configuration not stated)
  A: 1.0	B: .	C: 9%	D: -13	E: 35

#36 CCCCCCC(O)(CCN1CCCCC1)c1ccccc1 (configuration not stated)
  A: 1.8	B: .	C: .	D: .	E: 0

#37 COc1ccc(S(=O)(=O)N2CCOC2CNC(=O)C(=O)NCc2ccco2)cc1OC (configuration not stated)
  A: 0.3	B: .	C: -1%	D: .	E: 2

#38 CCOc1ccc(N2CC(C(=O)Nc3nnc(Cc4ccc(OC)c(OC)c4)s3)CC2=O)cc1 (configuration not stated)
  A: -1.8	B: .	C: .	D: .	E: 7

#39 CN(CC(=O)NCc1ccccc1Cl)S(=O)(=O)c1ccc2c(c1)n(C)c(=O)c(=O)n2C
  A: -0.5	B: .	C: .	D: .	E: -2

#40 Cn1c(Cc2ccccc2)nnc1SCC(=O)Nc1ccccc1
  A: 1.6	B: .	C: .	D: 0	E: -7

#41 COc1ccccc1CNC(=O)Cn1cccc1
  A: -2.1	B: -5	C: -7%	D: 4	E: -2

#42 Cc1ccc(Cl)c(NC(=O)COC(=O)c2ccccc2C(=O)c2ccc(Cl)c([N+](=O)[O-])c2)c1Cl
  A: -0.3	B: -14	C: ?	D: -40	E: 26

#43 O=C(NC(=S)Nc1cccc(Cl)c1N1CCCCC1)c1cccs1
  A: 13	B: -13	C: 53%	D: -25	E: 94

#44 CCOc1cc(/C=N/NC(=O)CCn2nnc3ccccc32)ccc1O
  A: -4.0	B: .	C: .	D: .	E: -3

#45 Fc1ccc(CSc2ccc3nnc(-c4cccs4)n3n2)cc1
  A: 0.2	B: -8	C: 15%	D: -3	E: -5

#46 O=C(CSc1nc(NS(=O)(=O)c2ccccc2)cc(=O)[nH]1)Nc1ccc(Cl)cc1
  A: .	B: .	C: 0%	D: -8	E: .

#47 O=C(c1ccc(Cl)cc1)c1cnc(Nc2ccccc2)s1
  A: -1.2	B: -15	C: -5%	D: -12	E: -16

#48 CCOc1ccccc1-c1nc(-c2cc3ccc(C)cc3[nH]c2=O)no1
  A: .	B: 5	C: 8%	D: 7	E: -9

#49 Cc1cc(C(=O)NCc2csc(-c3ccccc3)n2)no1
  A: 2.9	B: .	C: .	D: .	E: -5

#50 NC(=S)Nn1c(CCC(=O)O)ccc1-c1ccccc1
  A: -0.8	B: -8	C: 9%	D: 2	E: -4

#51 CC(C)(C)NC(=O)NC(=O)CN1CCN(C(c2ccccc2)c2ccccc2)CC1
  A: 8.3	B: .	C: 16%	D: -13	E: 11

#52 NNC(=S)Nc1ccccc1Cl
  A: -4.4	B: .	C: 3%	D: 4	E: 100

#53 Cc1cccc(NC(=S)NNC(=O)c2ccco2)c1
  A: -1.4	B: -34	C: -3%	D: 7	E: -13

#54 CC(=O)N(C)C1(c2nnnn2CCOC(=O)Nc2cccc3ccccc23)CCCC1
  A: .	B: 6	C: -2%	D: 2	E: -19

#55 CC1(C)C2([N+](=O)[O-])CN(CCO)CC1([N+](=O)[O-])CN(CCO)C2
  A: -0.7	B: -29	C: 5%	D: 4	E: 7

#56 CCOC(=O)c1cc(C)sc1NC(=O)CSc1nnnn1C
  A: 0.1	B: .	C: .	D: .	E: -3

#57 CCc1ccc(Nc2n[n+](-c3ccccc3)c(-c3c(Cl)cccc3Cl)s2)cc1
  A: 49*	B: .	C: .	D: .	E: 100

#58 Cc1ccc(Sc2ccc(NC(=O)CCl)cc2)c(C)c1
  A: 90*	B: -35	C: 3%	D: -8	E: 98

#59 O=C(Nc1nc(-c2cc(Cl)sc2Cl)cs1)c1ccccc1
  A: 3.3	B: -30	C: 0%	D: -22	E: 9

#60 O=C(NC1CC1)C1=C[C@@H](c2ccc3c(c2)OCO3)C[C@@H](OCc2ccc(CO)cc2)O1
  A: 2.4	B: .	C: -3%	D: 3	E: -5

#61 COc1ccccc1-c1nnc(-c2ccc(N3CCOCC3)cc2)o1
  A: 1.5	B: 2	C: 5%	D: 2	E: 44

#62 COc1cccc(C(=O)NCC(c2cccs2)N2CCc3ccccc32)c1 (configuration not stated)
  A: 1.3	B: .	C: .	D: .	E: -9
